# INS promoter inh – inhibitors of insulin promoter-driven GFP, primary screen, imaging, TRM-6 cells (human fetal islet line), eGFP reporter, cell count; 130,000 compounds, 0.9% hits; inhibition, % at 2 µM; reporter expression induced with tamoxifen;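 active means inhibition above the mean plus 3 SD, with well images judged a real hit on visual review, cut at about 60% in these data, passing the limit was not always enough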
# HSV replic up – enhancers of HSV replication in host cells, fold increase, host cell viability; HSV replication augmentation in cells; maximum fold increase; 220,000 compounds, 0.005% hits; AID 1956, 2009;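 active means peak rise of 1.5-fold or more in the series; tested in PC3 cells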;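 further: first round at 10 µM; read as green reporter fluorescence; hits show the peak of a series up to 25 µM; 1 = signal of infected wells without compound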
# PKD1 kinase inh – inhibitors of human PKD1 kinase, biochemical, fluorescence polarization. Serine/threonine-protein kinase D1 (Homo sapiens), Q15139. PKD1 kinase fluorescence polarization assay. inhibition, %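 (about 10 µM by stock and volumes)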. 200,000 compounds, 0.056% hits;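 active means inhibition of 50% or more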;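 further: controls were vehicle for no effect and a reference inhibitor for full effect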
# Target sequence (Q15139 whole entry, looked up): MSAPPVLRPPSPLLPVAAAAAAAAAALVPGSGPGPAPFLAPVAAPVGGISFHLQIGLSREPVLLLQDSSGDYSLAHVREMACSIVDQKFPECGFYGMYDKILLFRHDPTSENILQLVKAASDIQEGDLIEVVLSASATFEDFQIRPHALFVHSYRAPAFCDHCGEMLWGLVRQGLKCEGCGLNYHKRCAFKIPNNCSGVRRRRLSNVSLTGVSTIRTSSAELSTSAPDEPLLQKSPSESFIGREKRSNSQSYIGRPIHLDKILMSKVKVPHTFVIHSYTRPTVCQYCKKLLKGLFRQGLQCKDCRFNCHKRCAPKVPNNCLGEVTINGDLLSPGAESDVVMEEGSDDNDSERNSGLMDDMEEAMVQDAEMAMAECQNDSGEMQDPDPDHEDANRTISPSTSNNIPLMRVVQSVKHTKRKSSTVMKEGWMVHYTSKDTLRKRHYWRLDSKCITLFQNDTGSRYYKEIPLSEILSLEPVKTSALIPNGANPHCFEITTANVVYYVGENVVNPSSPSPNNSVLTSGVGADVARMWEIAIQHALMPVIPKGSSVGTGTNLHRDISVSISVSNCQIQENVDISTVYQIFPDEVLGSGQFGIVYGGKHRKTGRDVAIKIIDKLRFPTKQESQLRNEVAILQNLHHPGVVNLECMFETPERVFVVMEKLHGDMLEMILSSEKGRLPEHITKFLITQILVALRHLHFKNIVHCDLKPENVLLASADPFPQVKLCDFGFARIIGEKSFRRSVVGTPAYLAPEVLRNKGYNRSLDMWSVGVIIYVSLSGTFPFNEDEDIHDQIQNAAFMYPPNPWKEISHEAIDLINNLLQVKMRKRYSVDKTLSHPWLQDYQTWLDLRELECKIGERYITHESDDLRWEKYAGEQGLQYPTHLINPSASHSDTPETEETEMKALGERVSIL
# GALR2 agonist – GALR2 receptor agonists, primary screen, cell-based; Galanin receptor type 2 (Homo sapiens), O43603; GALR2-expressing cells, agonist activation read-out; activation, %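 (tested at 5 µM)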; 140,000 compounds, 0.48% hits;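 active means above mean plus 3 SD of all compounds, about 5% in these data, not always enough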;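 further: 0% = vehicle buffer wells and 100% = reference agonist at full effect; tested in CHO reporter cells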
# RGS16-Gao – modulators of RGS16 binding to Galphao, primary screen, biochemical, human proteins, multiplexed bead flow cytometry | bead-based flow cytometry RGS16-Galphao binding, fluorescence; actives lie on both sides | binding response (% of control), % at 10 µM | AID 1441, 2008 | 220,000 compounds, 0.38% hits | Regulator of G-protein signaling 16 (Homo sapiens) + Guanine nucleotide-binding protein …;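 active means below 25% or above 175%, edge rows of some plates excepted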;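 further: Galphao activated by GDP with aluminum fluoride before binding; 100% = wells without compound and 0% = beads without RGS; some results beyond the cut were filed as inactive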
# INS promoter inh cell count – also measured in INS promoter inh; calls as there; normalized cell count, %; measured here: cell count, toxicity; reference of the scale not given here;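 cells exposed to compound for 48 h; stained nuclei by imaging scaled within each plate; lower means fewer cells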
# HSV replic up primary fold – recorded beside HSV replic up, whose call it bears; fold increase; compound at 10 µM; measured here: primary screen fold increase 10 uM; tested in PC3 cells;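 GFP signal in the first replicate; 1 = infected wells without compound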
# Active calls of the source: *; i = inactive; x = no result given.
SMILES,INS promoter inh,INS promoter inh cell count,HSV replic up,HSV replic up primary fold,PKD1 kinase inh,GALR2 agonist,RGS16-Gao
CCOc1c(Br)cc(CNc2ccc3c(c2)OCCO3)cc1OC,-83,10,i,0.67,0,-1.5,98
CCOC(=O)CSc1snnc1C,48,132,i,1.2,0,-0.9,x
CCOC(=O)c1sc(NC(=O)c2cncc(Br)c2)nc1C,33,109,i,0.81,-3,-1.4,60
COc1ccc(N(C(=O)c2ccco2)S(=O)(=O)c2cc(OC)ccc2OC)cc1,0,102,i,0.95,-7,-3.7,104
CCCN(CC(=O)Nc1ccc(F)c(F)c1F)CC(=O)Nc1c(Cl)cccc1Cl,-6,66,i,0.95,-4,-0.8,101
CCOC(=O)CSc1nc2ccccc2c(=O)n1NC(=O)c1ccccc1,-6,72,i,0.86,-7,-2.7,112
O=C(c1ccccn1)N(CC1CCCO1)C1(C(=O)NC2CCCCC2)CCCCC1 (configuration not stated),-7,89,i,1.1,5,-1.8,100
COc1ccc2nc(NC(=O)[C@@H]3CCCN3C(=O)c3cccs3)sc2c1,-27,46,i,0.77,7,-1.7,107
O=c1oc(-c2ccccc2)nc2c1C1(CCCCC1)Cc1ccccc1-2,3,223,i,0.98,-2,-2.5,106
O=C(COc1ccccc1-c1ccccc1)NCCN1C(=O)S/C(=C\c2cccnc2)C1=O,x,x,i,0.82,-4,0.1,102
COc1ccc(CCNC(=O)c2c(O)c3c([nH]c2=O)CCCC3)cc1,14,115,i,0.91,-2,-1.3,98
Cn1c(NCc2ccco2)nc2c1c(=O)n(Cc1ccc(Cl)cc1)c(=O)n2C,3,199,i,0.94,-2,-0.5,90
COc1ccc2nc(NCCNC(=S)NCCCN3CCOCC3)c(C#N)cc2c1,7,125,i,0.96,1,x,90
CCOc1cc(C(=O)NC(=S)Nc2ccc(Cl)c(C(=O)O)c2)cc(OCC)c1OCC,x,x,i,1,x,x,101
CCOC(=O)C1C(=O)NC(N2CCN(c3ccccc3)CC2)=NC1c1ccco1 (configuration not stated),-23,73,i,0.8,-5,-2.8,109
CCCCCC[n+]1c(-c2ccccc2)csc1Nc1ccccc1,x,x,i,1.1,-10,-0.7,68
O=C(Cc1ccc(Br)cc1)Nc1ncc([N+](=O)[O-])s1,x,x,i,0.94,x,x,89
O=C(COc1ccc2ccccc2c1)N1CCN(C(=O)c2ccco2)CC1,x,x,i,0.98,0,x,103
CNc1ccccc1C(C)(C)c1cc(-c2cc(C)cc(C)c2)no1,x,x,i,1.1,3,0.4,104
O=C(C1Cc2ccccc2CN1S(=O)(=O)c1cccs1)N1CCCCCC1 (configuration not stated),-14,46,i,0.86,-8,-1.0,98
Cc1onc(-c2c(F)cccc2Cl)c1C(=O)OCC(=O)NC(N)=O,27,152,i,0.94,8,x,102
Cc1cc(C(=O)N2CCC(C(F)(F)F)n3nccc32)on1 (configuration not stated),-14,66,i,0.89,-7,-0.9,102
CCOC(=O)c1ccc(NC(=O)CN2C(=O)CNC2=O)cc1,16,107,i,0.91,-3,-2.2,99
CSc1ccc(Cl)c(C(=O)OCC(=O)NC2CC2)c1,-16,154,i,0.97,-4,-0.7,100
CCc1sc(-c2ccccc2)nc1C(=O)OC,x,x,i,1,x,x,99
CCC1(CC)Cc2ccccc2-c2nc(NCCCO)[nH]c(=O)c21,x,x,i,0.89,5,x,104
C=CCc1c(C)nc(SC)nc1Nc1ccc(C(=O)O)cc1,-105,158,i,0.96,0,-1.3,105
CC1CCC/C(=C\Nc2ccc3c(c2)OCO3)C1=O (configuration not stated),x,x,i,0.89,1,-1.6,98
CCCC(=O)NNC(=O)CCC(=O)NCc1ccccc1,x,x,i,1.1,-3,-4.2,111
O=S(=O)(c1ccc(-n2cnnn2)cc1)N1CCC(N2CCCCC2)CC1,x,x,i,1.1,6,x,98
Cc1cc(C)nc(SCCN(C)C)n1,13,121,i,1.1,5,x,94
CC(NC(=O)c1cc2sccc2n1C)c1ccc2c(c1)OCCO2 (configuration not stated),x,x,x,x,0,-3.4,98
COc1ccc2cc3c(N)nn(C(=O)Cc4ccc(Cl)cc4)c3nc2c1,x,x,x,x,4,1.6,106
Cc1oc(-c2ccccc2F)nc1CS(=O)(=O)CC(=O)NCCCN(C)C1CCCCC1,-69,62,i,0.86,-7,-1.3,99
COc1cccc(C2CC(c3ccc(C)cc3)n3nc(N)nc3N2)c1 (configuration not stated),43,166,i,0.78,-9,0.2,96
CC(C)c1ccc(NC(=S)NN2CCOCC2)cc1,x,x,i,0.92,-1,0.3,107
CC(=O)C1=C(C)NC(=O)NC1c1cccc(O)c1 (configuration not stated),12,79,i,0.92,5,-1.1,102
O=C1c2nc3ccccn3c2C(=O)N1Cc1ccccc1,64,79,i,1,6,-2.0,87
CCOC(=O)c1cc2c(ccn2C)n1CC(=O)N1CCN(c2cccc(C(F)(F)F)c2)CC1,-32,78,i,0.8,-1,-2.0,104
CC1=Nc2ncnn2C(c2ccccc2)/C1=N\O (configuration not stated),x,x,i,0.95,6,-0.5,99
CCc1ccc(-n2nc3ccc(NC(=O)c4ccc5c(c4)OCO5)cc3n2)cc1,14,62,i,0.85,-11,-0.7,97
Cc1ccc(Cn2cnc3ccccc32)cc1C,3,120,i,1,3,-1.5,104
CCc1cccc(C)c1NC(=O)C1C2CCC(O2)C1C(=O)O (configuration not stated),-100,125,i,0.95,0,-2.3,103
COc1cc(OC)c(NS(=O)(=O)c2cccc(C(=O)OCC(=O)NCC3CCCO3)c2)cc1Cl (configuration not stated),x,x,i,0.93,-2,x,107
Fc1cccc(F)c1CSc1nc2ccccc2[nH]1,75*,174*,i,0.94,-3,-3.8,99
COc1ccc(/C=N/NC(=O)c2ccc(COc3ccccc3Cl)o2)cc1,x,x,x,x,-5,-0.4,105
Clc1ccc(CSc2ccc(-c3cccnc3)nn2)cc1,8,82,i,1,2,x,68
CN(C)c1oc(-c2cccs2)nc1C#N,x,x,x,x,4,-1.2,80
O=C(Nc1ccccc1)c1ccc(CSc2ncccn2)cc1,20,78,i,0.92,3,-0.4,90
O=C(NCc1ccco1)c1ccc(NS(=O)(=O)c2cccc([N+](=O)[O-])c2)cc1,x,x,i,0.85,-8,x,102
# The listing continues:
SMILES,INS promoter inh,INS promoter inh cell count,HSV replic up,HSV replic up primary fold,PKD1 kinase inh,GALR2 agonist,RGS16-Gao
Cc1cc(C)n(CC(O)COc2ccccc2C(=O)Nc2ccccc2)n1 (configuration not stated),x,x,i,1,-15,-1.5,101
Cc1cc(C)n(-c2ccc(C(=O)O)cc2)n1,-8,141,i,1,-12,1.0,103
Nc1nc(NCCCN2CCOCC2)nc(Nc2ccccc2F)c1[N+](=O)[O-],x,x,i,0.88,x,x,92
Cc1ccc(C(=S)N2CCN(Cc3ccccc3)CC2)cc1,15,95,i,0.95,-7,x,71
CC(C)C(c1nnnn1Cc1ccc(F)cc1)N1CCN(C2CCCCC2)CC1 (configuration not stated),-36,125,i,0.99,6,-1.5,105
Cc1ccc(S(=O)(=O)c2nc(-c3ccc(F)cc3)oc2SCC(N)=O)cc1,-50,74,i,0.82,0,1.7,104
Cc1noc(C)c1C(=O)N1CCCC1,-4,92,i,0.94,-3,-0.6,93
CCOC(=O)CNC(=O)C(=O)c1c(O)[nH]c2ccccc12,29,17,i,0.95,-9,-1.0,103
CCOC(=O)C1CCN(C(=O)C2CCN(c3nc4ccc(OC)cc4s3)CC2)CC1,x,x,i,1.1,8,-3.5,93
CC(=O)NC1CC2CCCC(C1)N2C(=O)Nc1ccccc1 (configuration not stated),-44,94,i,0.93,-6,-1.6,107
CC(=O)Nc1nonc1-c1nc2ccccc2n1CCC#N,-70,97,i,1,7,-1.7,109
Cc1cc(C)cc(N(CC(=O)NCc2cccnc2)S(C)(=O)=O)c1,-30,103,i,1,11,0.2,101
CC(C)(C)OC(=O)Nc1ncnc2c1ncn2C1OC(CO)C2OC(C)(C)OC21 (configuration not stated),x,x,i,1.1,x,x,122
NS(=O)(=O)c1ccc(Oc2ccc(S(N)(=O)=O)cc2)cc1,-39,59,i,1,3,x,106
O=S(=O)(c1ccc2ccccc2c1)N1CCC(c2nc(-c3ccncc3)no2)CC1,31,100,i,0.87,-4,-1.7,109
O=C(N/N=C/c1coc2ccccc2c1=O)c1cc2ccccc2o1,21,108,i,1,-2,-1.0,112
CC(C)CNC(=S)N1CCC(NC(=O)C23CC4CC(CC(C4)C2)C3)CC1,-305,47,i,0.88,6,-3.3,101
COc1ccc(/C=C(\NC(=O)c2ccc(OC)cc2)C(=O)NC(CCSC)C(=O)O)cc1 (configuration not stated),29,101,i,0.91,-5,-1.5,95
O=c1c2cccc3c2c(nn1-c1ccccc1)-c1ccccc1-3,13,102,i,0.77,-12,-3.6,103
CN1CCN(Cc2ccc(-c3ccc(Cl)cc3)o2)CC1,20,130,i,0.93,-6,-0.6,96
CN1OC(Cn2cc(C#N)c(=O)n(C)c2=O)CC1c1ccccc1 (configuration not stated),-11,101,i,0.9,-8,x,97
N#CCCNc1c(Cl)cc(Cl)cc1C(=O)O,43,109,i,0.94,-8,-1.7,86
O=[N+]([O-])c1cccc(/C=N/n2c(C3CCCCC3)n[nH]c2=S)c1,-74,93,i,0.87,-5,2.0,97
Cc1c(C(=O)NN)sc(=S)n1C,x,x,i,0.84,x,x,99
CCc1nnc(NC(=O)C(NC(=O)c2ccccc2Cl)C(C)C)s1 (configuration not stated),0,121,i,1,-7,x,102
O=c1n(-c2ccccc2)c(=O)n(Cc2ccccn2)n1Cc1ccccn1,5,103,i,0.79,-11,-0.2,91
c1ccc2c(c1)ncn2CCn1cnc2ccccc21,13,71,i,0.78,-9,-1.5,65
c1ccc(-c2cn(-c3ccccc3)c3ncnc(NCCCN4CCOCC4)c23)cc1,-8,187,i,0.7,-5,x,109
O=[N+]([O-])c1cc2c(c(CSc3ncccn3)c1)OCOC2,-9,135,i,1,5,x,101
N#CC1=C(N)Oc2cc(N)ccc2C1c1ccsc1 (configuration not stated),14,107,i,1,0,0.5,92
CC(C)OC(=O)c1nnc(Cc2ccc(F)cc2)o1,x,x,i,0.85,3,x,131
Cc1ccc(C(=O)N2CCC3(CC2)Oc2ccc(F)cc2C(=O)C32CC(c3ccc(Cl)cc3)=NO2)s1 (configuration not stated),x,x,i,0.65,x,x,102
CCNc1nc2[nH]c(=O)c3c(c2s1)OC(N)=C(C#N)C3c1ccc(C)cc1 (configuration not stated),-14,119,i,0.99,16,-1.6,96
CCN(CC#CCC(O)(c1ccccc1)C1CCCC1)C(C)C (configuration not stated),-55,59,i,0.84,-3,-3.5,102
COC(=O)CSc1nc(NC#N)nc(NC(C)C)n1,42,107,i,0.99,-3,-0.1,103
NC(=O)NC(Cc1ccccc1)C(=O)Nc1ccc(S(N)(=O)=O)cc1 (configuration not stated),24,118,i,1,-8,-1.5,103
Cc1cc(C)cc(NC(=S)N2CCN(Cc3ccccc3)CC2)c1,x,x,i,0.86,-4,x,102

# High-throughput results as filed in PubChem BioAssay.
